# Source: PubChem BioAssay
# UCH37 inh: inhibitors of human UCH37 deubiquitinase, primary screen, biochemical, Ub-AMC cleavage, fluorescence. purified proteasome/UCH37. hit rate 0.33% among 330,000. Ubiquitin carboxyl-terminal hydrolase isozyme L5 (Homo sapiens), Q9Y5K5. inhibition, % (no concentration beside the values);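 active = mean of two replicates above 20%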;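 note: 0% = compound-free wells with enzyme and 100% = wells lacking proteasome; stock transfer was 100 nL into about 20 µL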
#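 Schedule: 30 min plus 25 min, room temperature / Material: human UCH37 within purified proteasomes / Technique: AMC fluorescence intensity at 355/460 nm / Buffer or medium: pH 7.4 Tris-HCl (50 mM) with ovalbumin, ATP-MgCl2, DTT / Controls: wells without proteasome as full block, compound-free enzyme plus substrate as uninhibited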
# T cruzi inh: inhibitors of intracellular T. cruzi growth, primary screen, luminescence, NIH3T3 host cells; T. cruzi beta-gal in NIH3T3, 90 h; inhibition, % (test concentration not listed); hit rate 1.4% among 300,000;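 active = mean inhibition across valid replicates above about 55%, limit read from the data; inconclusive = mean below that limit but half or more replicates reach it; inactive = mean below it, under half of replicates reach it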;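 note: signal also drops with host cell toxicity which is not excluded here; 0% = plate median of DMSO wells and 100% = zero luminescence signal; higher percent means less beta-gal luminescence so fewer parasites; stock transfer was 50 nL into about 50 µL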
# LANA-H2B inh: blockers of LANA interaction with H2A/H2B – biochemical, FP readout, HTS, primary screen | hit rate 0.6% among 320,000 | cell-free LANA-H2A/H2B peptide, fluorescence polarization | inhibition, % (test concentration not listed); in the data active = inhibition mostly above about 10%, no sharp cut-off; inactive = mostly below about 6.7%;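 note: stock transfer was 7.5 nL into about 10 µL; 0% = median of vehicle wells and 100% = median of positive control wells; one replicate is shown; the record names a cut of 25% in any replicate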
# Target sequence (Q9QR71 whole entry, looked up): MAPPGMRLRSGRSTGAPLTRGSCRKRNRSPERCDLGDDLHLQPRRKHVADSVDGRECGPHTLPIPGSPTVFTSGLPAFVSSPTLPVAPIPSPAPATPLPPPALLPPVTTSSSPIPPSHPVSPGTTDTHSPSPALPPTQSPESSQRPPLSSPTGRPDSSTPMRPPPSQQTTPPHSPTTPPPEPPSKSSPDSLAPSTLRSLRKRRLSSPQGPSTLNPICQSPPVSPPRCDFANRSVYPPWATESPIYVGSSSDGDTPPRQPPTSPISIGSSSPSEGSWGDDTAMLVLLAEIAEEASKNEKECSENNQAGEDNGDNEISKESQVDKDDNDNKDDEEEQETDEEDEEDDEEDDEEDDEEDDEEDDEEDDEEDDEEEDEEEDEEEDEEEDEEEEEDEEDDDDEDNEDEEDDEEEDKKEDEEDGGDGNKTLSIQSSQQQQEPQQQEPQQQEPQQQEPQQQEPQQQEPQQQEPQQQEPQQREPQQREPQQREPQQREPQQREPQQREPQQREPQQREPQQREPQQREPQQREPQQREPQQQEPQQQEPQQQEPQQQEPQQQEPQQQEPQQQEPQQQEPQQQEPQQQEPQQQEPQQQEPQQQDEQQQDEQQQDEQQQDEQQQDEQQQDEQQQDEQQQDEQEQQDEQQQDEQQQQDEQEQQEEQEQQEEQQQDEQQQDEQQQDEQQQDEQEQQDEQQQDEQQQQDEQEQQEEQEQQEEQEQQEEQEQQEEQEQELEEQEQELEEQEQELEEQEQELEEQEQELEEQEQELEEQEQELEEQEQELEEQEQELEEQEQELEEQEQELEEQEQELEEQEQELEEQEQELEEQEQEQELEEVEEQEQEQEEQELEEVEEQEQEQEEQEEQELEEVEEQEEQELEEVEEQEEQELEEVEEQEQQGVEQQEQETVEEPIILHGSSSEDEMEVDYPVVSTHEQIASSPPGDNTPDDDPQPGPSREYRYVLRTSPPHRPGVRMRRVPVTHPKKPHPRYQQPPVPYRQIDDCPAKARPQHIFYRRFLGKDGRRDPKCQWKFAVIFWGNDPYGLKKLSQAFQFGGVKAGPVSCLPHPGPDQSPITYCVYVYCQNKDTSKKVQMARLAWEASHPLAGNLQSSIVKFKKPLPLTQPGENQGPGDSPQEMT
# RanGTP-Imp inh: inhibitors of RanGTP-importin-beta interaction, primary screen, biochemical, FRET, CFP-Ran, YFP-importin-beta, homogeneous; Ran GTPase (GTP-bound) - importin-beta complex; cell-free CFP-Ran/YFP-importin-beta FRET ratio; inhibition, % (no concentration beside the values); AID 2216, 2009; hit rate 1.1% among 300,000;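 active = most replicates above 15%; inconclusive = exactly half above 15%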;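 note: 0% = DMSO wells and 100% = Ran loaded with GDP instead of GTP; wells of about 40 µL received 100 nL stock; the first replicate is given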
# Beta2AR agonist: beta2AR agonists driving receptor internalization, primary screen, cell-based, FAP fluorogen, flow cytometry; Beta-2 adrenergic receptor (Homo sapiens), P07550; Am2.2-beta2AR cells; reference of the scale not given here; response, % (no concentration beside the values); hit rate 0.43% among 340,000; AID 504454, 2011;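 active = response above a set limit, near 3 SD of response in nonfluorescent compounds, cut at about 42% in these data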;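 note: stock transfer was 100 nL into about 11 µL; a reference agonist was the positive control; negative values mostly stem from fluorescent compounds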
# Calb FLC: C. albicans growth inhibition with fluconazole, primary screen, CaCi-2 strain, Alamar Blue fluorescence | C. albicans CaCi-2 (fluconazole-resistant clinical isolate) + fluconazole, 48 h | growth inhibition, % (no concentration beside the values) | hit rate 0.57% among 300,000 | AID 1979, 2009;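 active = most replicates above 75%; inconclusive = exactly half above 75%; inactive = most below 75%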;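 note: all wells also contain fluconazole at 8 µg/ml as a sub-toxic cotreatment; 0% = median of DMSO wells and 100% = median of geldanamycin control wells; wells of about 8 µL received 7.5 nL stock; the first replicate is given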
# A1 inh: caspase 3/7 activation in MEF A1-2A-BIM cells, primary screen, A1 inhibitor project, cell-based, luminescence, HTS | AID 2462, 2010 | Caspase-Glo 3/7 luminescence, 3 h; percent of clofoctol response, vehicle zero | hit rate 0.066% among 330,000 | caspase activation, % (no concentration beside the values);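 active = over half of replicate activation scores above 10%, or exactly half above 10 with the replicate mean above 10; inconclusive = replicate mean below 10 yet half the replicates above 10; inactive = over half of replicates below 10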;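 note: wells of about 30 µL received 50 nL stock; many hits fall short of the cut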
# Beta cell apopt: inhibitors of cytokine-induced beta cell apoptosis, primary screen, luminescence. INS-1E cytokine-induced death, ATP luminescence, 48 h; percent of positive-control rescue, neutral wells zero. protection from apoptosis, % (concentration not given with the values). hit rate 0.8% among 300,000. AID 435005, 2010;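 active = all replicates at 75% or more, or half of them and the mean; inconclusive = half reach 75% but not the mean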;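 note: 0% = cytokine-treated negative control wells and 100% = positive control rescue; higher means more ATP so stronger rescue from cytokine killing; wells of about 40 µL received 100 nL stock; the first replicate is given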
# Starred values were filed as active, the others as inactive; i = inactive; u = inconclusive; x = no result given.
SMILES,UCH37 inh,T cruzi inh,LANA-H2B inh,RanGTP-Imp inh,Beta2AR agonist,Calb FLC,A1 inh,Beta cell apopt
CCCCC(=O)Oc1c(S(=O)(=O)c2ccc(C)cc2)c(C)nn1C(C)(C)C,3.6,-6,5.1,-6.0,-2,8,-0.2,-6
C#CCn1c(-c2cccs2)nc2ccccc21,-53,-14,-2.5,0.3,-7,33,0.0,0
Cc1cc(C)n(-c2nnc(C)n2/N=C/c2ccc(O)cc2)n1,x,-23,-3.0,-0.7,-3,-2,-0.5,-1
CCOc1ccc(N(CC)S(=O)(=O)c2ccc3c(c2)n(C)c(=O)c(=O)n3C)cc1,-9.0,-10,x,6.4,1,-1,x,x
O=C(NC1CCCC1)C(c1ccccc1)N(C(=O)c1csnn1)c1ccccc1F (stereo not given),-2.1,-16,2.5,3.0,1,-1,-0.3,-6
Cc1ccc(C(=O)OCC(=O)c2c(N)n(C)c(=O)n(C)c2=O)cc1S(=O)(=O)N1CCOCC1,1.8,x,0.9,x,1,x,0.0,-5
N=c1c(C(=O)NCc2ccc(F)cc2)cc2c(=O)n3ccccc3nc2n1Cc1cccnc1,i,70*,-0.4,181*,5,-7,0.2,x
Cc1nn(-c2ccccc2)c(C)c1C(=O)OCC(=O)Nc1ccccc1F,0.1,x,3.0,x,-3,x,-10,2
CS(=O)(=O)N(CC(=O)Nc1cccc([N+](=O)[O-])c1)c1ccccc1,3.0,-13,2.4,1.1,2,-1,-0.2,-2
O=S(=O)(NCCN1CCOCC1)c1cccs1,1.0,-8,0.0,2.8,0,-41,1.0,-9
COc1cccc(/C=N/NC(=O)CSc2ccccc2C)c1OC,x,-7,-1.7,5.4,-4,22,1.1,-1
COc1ccc(NC(=O)COc2cccc(C(F)(F)F)c2)cn1,4.9,-5,-0.5,0.7,2,-2,0.5,x
Cc1ccc(S(=O)(=O)N2CCN(C(=O)c3cccc(F)c3)CC2)cc1,1.5,-5,-12,-1.8,0,-6,1.8,-4
CC(C)(C)CC(C)(C)NC(=O)c1ccccc1,1.5,8,-5.1,1.3,-6,-7,-0.5,-4
Nc1nc(SCC(=O)NCc2ccccc2)n[nH]1,0.2,-18,-1.8,-1.6,-10,0,-0.2,-4
CCCCCCn1c(=O)c(Cc2ccccc2)c(O)c2ccccc21,-1.4,2,-12,-0.7,6,11,-1.1,1
CCN(CC(=O)Nc1ccccc1C(F)(F)F)C(=O)CN1C(=O)NC(C)(c2ccccc2)C1=O (stereo not given),2.8,-8,-0.3,1.4,-4,0,1.7,-5
COc1ccc(C(=O)n2c(C)c(CCO)c(=O)n2C)cc1,-0.5,-1,4.0,-0.4,6,-3,-0.3,-6
CCOC(=O)N1CCN(C2CC(=O)N(c3ccc(C)cc3)C2=O)CC1 (stereo not given),3.4,-17,-3.0,-2.4,-4,5,1.4,-5
O=C(Cn1nc(-c2ccccc2)ccc1=O)Nc1ccc(NC(=O)c2ccccn2)cc1,-95,2,2.9,0.8,125*,-7,0.0,15
C[C@H]1CN([C@@H](C)CO)C(=O)c2cc(NC(=O)C3CCCCC3)ccc2O[C@H]1CN(C)CC1CCCCC1,-2.1,x,1.9,x,10,x,-0.2,-3
CC1CCN(C(=O)CSc2nnc(-c3ccccc3F)o2)CC1,3.5,0,0.9,1.6,-8,0,-1.2,-4
COc1cccc(NC(=O)CN2CCc3ccccc3C2)c1,1.1,-11,1.9,2.7,-2,-8,0.1,-3
C=CCN1c2ccccc2[C@]23C[C@@H](C(=O)OC)N(C(=O)C4CCC4)C2=NC(C(=O)OC)=C(C(=O)OC)[C@H]13,5.0,0,-2.3,7.1,3,-2,1.3,0
CCC(=O)Nc1cc(C(=O)OCC(=O)c2ccc(Cl)cc2Cl)ccc1C,3.1,-18,-0.4,-1.4,12,-6,0.4,2
CNS(=O)(=O)c1cccc(C(=O)NCC(c2cccs2)N2CCOCC2)c1 (stereo not given),0.8,-6,1.2,-3.8,-11,x,-0.4,2
COc1ccc(C(=O)Nc2ccc(C)c(S(=O)(=O)N3CCCCCC3)c2)cc1,2.6,27,-2.3,3.5,12,12,-0.2,8
CC(NCC(=O)NCCc1ccc(S(N)(=O)=O)cc1)c1ccc(F)cc1 (stereo not given),-0.3,7,-7.7,-3.9,0,1,0.4,0
O=C1C2C3C=CC(C3)C2C(=O)N1c1cccc2cccnc12 (stereo not given),1.1,x,-1.8,x,9,x,-0.1,-6
CC1CC(C)CN(C(=O)c2cccc(NC(=O)CC3SC(N4CCCCC4)=NC3=O)c2)C1 (stereo not given),0.9,x,1.9,x,2,x,-1.0,-10
COc1ccc(/C=N/Nc2nc3ccccc3o2)cc1OC,x,-2,1.6,-3.8,-12,4,-1.2,-2
CC(C)Cc1ccc(CN2CCCC(NC(=O)CCn3cnnn3)C2)cc1 (stereo not given),x,56*,-3.3,3.7,-2,19,-0.1,x
COc1ccc(OC)c(N=C(N)N=C(N)N)c1,6.6,-4,-2.6,5.6,-1,20,1.1,-7
O=C(N1CCOCC1)N1CCN(c2ccc(F)cc2)CC1,3.0,-6,0.4,1.4,-3,-13,0.1,-7
Cn1nnnc1SCC(=O)N1c2ccccc2Sc2ccc(Cl)cc21,2.5,x,-1.8,x,-4,x,-0.1,-2
NC(=O)[C@@H]1CC2(CC(c3cccc(NC(=O)[C@H]4CCC(=O)N4)c3)=NO2)CN1C(=O)c1ccc(Cl)cc1 (stereo not given in full),-1.0,-23,-3.1,6.9,-2,-25,0.6,-5
C=CCc1cc(C)ccc1OCCOCCn1ccnc1,2.7,32,-8.1,-1.5,2,-52,1.7,0
Cc1ccc(S(=O)(=O)N2CCN(C(=O)C3CSC4(C)CCC(=O)N34)CC2)cc1C (stereo not given),-0.6,13,-7.3,-0.4,4,x,0.2,0
COc1cccc(CN(C)CC(=O)Nc2ccccc2N2CCOCC2)c1OC,1.6,18,3.9,-1.3,-2,-7,0.4,4
O=C1CC(Sc2nnnn2C2CCCCC2)C(=O)N1c1ccccc1 (stereo not given),0.4,33,-4.8,7.6,5,-3,0.7,-10

# RanGTP-Imp inh, hit marks shown above.
molecule	UCH37 inh	LANA-H2B inh	RanGTP-Imp inh	Beta2AR agonist	A1 inh
N=c1c(C(=O)NCc2ccc(F)cc2)cc2c(=O)n3ccccc3nc2n1Cc1cccnc1	i	-0.4	181*	5	0.2

# Exported with tabs: entries from further up.
SMILES	UCH37 inh	T cruzi inh	LANA-H2B inh	RanGTP-Imp inh	Beta2AR agonist	Calb FLC	A1 inh	Beta cell apopt
CCC(=O)Nc1cc(C(=O)OCC(=O)c2ccc(Cl)cc2Cl)ccc1C	3.1	-18	-0.4	-1.4	12	-6	0.4	2
CNS(=O)(=O)c1cccc(C(=O)NCC(c2cccs2)N2CCOCC2)c1 (stereo not given)	0.8	-6	1.2	-3.8	-11	x	-0.4	2
COc1ccc(C(=O)Nc2ccc(C)c(S(=O)(=O)N3CCCCCC3)c2)cc1	2.6	27	-2.3	3.5	12	12	-0.2	8
CC(NCC(=O)NCCc1ccc(S(N)(=O)=O)cc1)c1ccc(F)cc1 (stereo not given)	-0.3	7	-7.7	-3.9	0	1	0.4	0

# (list continues)
SMILES,UCH37 inh,T cruzi inh,LANA-H2B inh,RanGTP-Imp inh,Beta2AR agonist,Calb FLC,A1 inh,Beta cell apopt
COc1ccc(C(=O)N2N=C3CC(C)(C)OCC3C2c2ccccc2)cc1 (stereo not given),0.0,4,0.2,3.3,-3,-9,0.9,-18
Cc1cc(=O)[nH]c(SC(C)C(=O)Nc2cccc3ccccc23)n1 (stereo not given),1.4,-3,-2.0,-1.6,2,10,0.2,-15
Cn1nnnc1SCC(=O)Nc1ccccc1Cl,1.4,-3,-1.8,6.1,1,-3,0.6,-1
CCOC(=O)c1sc2nc(C)nc(SCC(N)=O)c2c1C,-4.5,-18,4.6,-5.2,6,-9,-2.0,5
Cc1ccc(S(=O)(=O)NC2CCCCCC2)cc1C(N)=O,5.4,-5,0.2,-1.2,-12,0,-0.1,4
COc1cc(SC)ccc1C(=O)NCCN1CCOCC1,2.1,7,2.3,1.0,-6,-4,0.1,-2
O=C(CCCc1nc2ccccc2s1)NCc1ccccc1,1.5,0,2.7,0.0,-3,0,0.7,-9
Cc1ccc(C)c2[nH]c(=O)c(CN(Cc3cccnc3)C(=S)NCc3ccco3)cc12,-3.7,31,-4.6,-1.4,2,1,-0.5,-3
O=c1nc(Nc2ccc(Br)cc2)sc2ccc([N+](=O)[O-])cc12,4.8,12,-0.5,-2.5,2,24,-0.3,15
CCn1c(SCC(=O)Nc2ccc(N(C)C)cc2)nnc1C1CC1,4.3,-8,-1.8,-0.1,1,2,-0.8,-3
CN(C)/C=N/c1nc2nccc(-c3cccs3)n2n1,x,-13,-1.8,17*,-6,2,-0.4,-3
Cc1c(C(=O)NC2CCCCC2C)oc2ccccc12 (stereo not given),2.9,-14,-0.3,0.1,0,-26,0.1,4
Cc1cc2nc(SCCOC(=O)Nc3ccccc3)nc(C)c2cc1C,1.1,10,-4.9,-6.1,15,-1,-0.2,2
CCN(CC)C(=O)c1cc2c(=O)n3ccccc3nc2s1,i,-21,0.1,1.4,-18,0,-0.9,-6
CC(C)c1cccc(C(C)C)c1NC(=O)CNCc1ccccc1F,0.6,15,0.4,3.4,-1,-14,1.1,-4
CCN=C1SC(C(=O)Nc2ccc(OCC)cc2)CC(=O)N1CC (stereo not given),2.3,-13,-0.7,8.0,4,2,-0.1,1
CC1(C(=O)NC2CCCCCCC2)CC1(Cl)Cl (stereo not given),0.3,8,-0.5,-0.6,-1,-41,-0.7,0
CC1(C(=O)O)CCC(C(=O)Nc2ccccc2)C1(C)C (stereo not given),1.4,8,-3.8,-2.0,1,-17,0.1,-2
O=C1CC(NS(=O)(=O)c2ccc3ccccc3c2)CN1c1ccccc1 (stereo not given),1.3,-4,7.1,-0.3,-9,-3,0.2,2
Cc1cccc(-c2nc3c(c(SCC(=O)N4CCCC4)n2)COC(C)(C)C3)c1,7.2,-13,-1.3,u,5,3,-0.3,-4
Cc1cc(C)cc(NC(=O)c2cccc(NC(=O)c3ccco3)c2)c1,5.7,24,-0.6,2.0,-1,-5,0.4,2
CC(C)[C@H](NC(=O)N1CCn2c1nc1ccccc12)C(=O)NC1CC1,1.8,-6,1.2,3.3,-8,-12,-0.4,-5
O=C(O)c1cc(NN=C2c3ccccc3-c3ccccc32)ccc1Cl,x,1,0.2,-5.1,2,-4,0.0,-7

# Some of the entries above in another layout.
# Second line of a record: UCH37 inh, T cruzi inh, LANA-H2B inh, RanGTP-Imp inh, Beta2AR agonist, Calb FLC, A1 inh, Beta cell apopt
CCN=C1SC(C(=O)Nc2ccc(OCC)cc2)CC(=O)N1CC (stereo not given)
→ 2.3, -13, -0.7, 8.0, 4, 2, -0.1, 1
CC1(C(=O)NC2CCCCCCC2)CC1(Cl)Cl (stereo not given)
→ 0.3, 8, -0.5, -0.6, -1, -41, -0.7, 0
